From PubChem
T cruzi inh – T. cruzi replication inhibition. T. cruzi beta-gal in NIH3T3, luminescence, 90 h. inhibition, % (concentration not given with the values). actives 1.4% (n = 300,000). AID 1885;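 active = mean inhibition across valid replicates above about 55%, limit read from the data; inconclusive = mean below that limit but half or more replicates reach it; inactive = mean below it, under half of replicates reach it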;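 note: signal also drops with host cell toxicity which is not excluded here; 0% = plate median of DMSO wells and 100% = zero luminescence signal; higher percent means less beta-gal luminescence so fewer parasites; stock transfer was 50 nL into about 50 µL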
MLL AF4-AF9 inh – inhibitors of human MLL-AF4/AF9 interaction | inhibition, % at 10 µM | AlphaScreen, biotin-AF4 peptide binding to FLAG-AF9 | actives 0.47% (n = 350,000) | P42568;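 active = every replicate reaching a set inhibition limit, whatever the replicate mean, cut at about 25% in these data; inconclusive = mean inhibition reaches that limit but some replicates miss it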;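 note: 0% = plate neutral control median and 100% = total signal loss; the record names both 10 and 1 µM as test concentration; the first replicate is given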
Target sequence (P42568 whole entry, looked up): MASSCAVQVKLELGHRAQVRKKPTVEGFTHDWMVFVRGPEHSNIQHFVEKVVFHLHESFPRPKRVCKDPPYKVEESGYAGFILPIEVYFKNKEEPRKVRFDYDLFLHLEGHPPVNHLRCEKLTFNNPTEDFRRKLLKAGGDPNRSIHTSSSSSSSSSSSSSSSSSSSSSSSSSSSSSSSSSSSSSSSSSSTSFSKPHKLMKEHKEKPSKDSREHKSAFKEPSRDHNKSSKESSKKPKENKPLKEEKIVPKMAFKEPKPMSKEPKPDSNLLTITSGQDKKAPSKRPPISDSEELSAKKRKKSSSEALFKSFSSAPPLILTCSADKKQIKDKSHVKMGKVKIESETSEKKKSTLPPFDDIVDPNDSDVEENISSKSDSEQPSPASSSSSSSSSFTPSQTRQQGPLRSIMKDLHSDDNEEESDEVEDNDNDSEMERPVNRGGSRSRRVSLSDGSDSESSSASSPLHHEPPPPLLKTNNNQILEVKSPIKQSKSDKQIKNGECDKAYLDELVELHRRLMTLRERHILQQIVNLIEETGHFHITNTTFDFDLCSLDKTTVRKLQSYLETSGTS
RanGTP-Imp inh – inhibitors of RanGTP-importin-beta interaction, primary screen, biochemical, FRET, CFP-Ran, YFP-importin-beta, homogeneous | cell-free CFP-Ran/YFP-importin-beta FRET ratio | inhibition, % (concentration not given with the values) | actives 1.1% (n = 300,000) | AID 2216;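 active = most replicates above 15%; inconclusive = exactly half above 15%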;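 note: 0% = DMSO wells and 100% = Ran loaded with GDP instead of GTP; wells of about 40 µL received 100 nL stock; the first replicate is given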
LANA-H2A inh – blocks KSHV LANA binding to histone H2A/H2B. AID 2629. actives 0.6% (n = 320,000). inhibition, % (test concentration not listed). cell-free LANA-H2A/H2B peptide, fluorescence polarization. Q9QR71; in the data active = inhibition mostly above about 10%, no sharp cut-off; inactive = mostly below about 6.7%;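 note: stock transfer was 7.5 nL into about 10 µL; 0% = median of vehicle wells and 100% = median of positive control wells; one replicate is shown; the record names a cut of 25% in any replicate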
Bfl-1 A1 inh – inhibitors of the anti-apoptotic protein A1, read as caspase activation | actives 0.066% (n = 330,000) | AID 2462 | MEF A1-2A-BIM cells, Caspase-Glo 3/7 luminescence, 3 h; percent of clofoctol response, vehicle zero | caspase activation, % (no concentration beside the values);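 active = over half of replicate activation scores above 10%, or exactly half above 10 with the replicate mean above 10; inconclusive = replicate mean below 10 yet half the replicates above 10; inactive = over half of replicates below 10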;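 note: wells of about 30 µL received 50 nL stock; many hits fall short of the cut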
Vif TR-FRET – HIV-1 Vif–A3G interaction blockers – biochemical, TR-FRET, GST-Vif 1-94, biotin-A3G peptide, dose response retest, primary screen (AID 1117319) | TR-FRET GST-Vif / biotin-A3G peptide binding; higher % means a stronger effect; test concentration not given here; strong numbers were not always called active | one-dose inhibition, %; IC50 in µM for titrated hits | actives 0.57% (n = 260,000);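 active = above the screen mean plus three standard deviations and confirmed in dose response; inconclusive = results disagree or hit not tested in dose response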;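 note: Vif residues 1-94 fused to GST binding biotinylated APOBEC3G peptide 110-148; 0% = full assay without inhibitor and 100% = GST in place of GST-Vif; retest series ran down from 100 µM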
Calb FLC – C. albicans growth modulation with fluconazole. C. albicans CaCi-2 (fluconazole-resistant clinical isolate) + fluconazole, Alamar Blue growth, 48 h. growth inhibition, % (concentration not given with the values). actives 0.57% (n = 300,000);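 active = most replicates above 75%; inconclusive = exactly half above 75%; inactive = most below 75%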;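 note: all wells also contain fluconazole at 8 µg/ml as a sub-toxic cotreatment; 0% = median of DMSO wells and 100% = median of geldanamycin control wells; wells of about 8 µL received 7.5 nL stock; the first replicate is given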
Beta apoptosis – beta cell apoptosis inhibition | INS-1E cytokine-induced death, ATP luminescence, 48 h; percent of positive-control rescue, neutral wells zero | protection from apoptosis, % (no concentration beside the values) | actives 0.8% (n = 300,000) | AID 435005;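 active = all replicates at 75% or more, or half of them and the mean; inconclusive = half reach 75% but not the mean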;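 note: 0% = cytokine-treated negative control wells and 100% = positive control rescue; higher means more ATP so stronger rescue from cytokine killing; wells of about 40 µL received 100 nL stock; the first replicate is given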
* hit, by the source's call; i = inactive; ? = inconclusive; · = no result given; & = joins results of further samples.

Values run as follows: T cruzi inh | MLL AF4-AF9 inh | RanGTP-Imp inh | LANA-H2A inh | Bfl-1 A1 inh | Vif TR-FRET | Calb FLC | Beta apoptosis
#1 COC(=O)c1cc(-c2ccc(NC(C)=O)cc2)nc2ccccc12
 : -19 | -0.1 | -0.7 | 4.6 | 1.0 | -6% | 6 | -14
#2 CN(c1ccccc1C(=O)O)S(=O)(=O)c1ccc2[nH]c(=O)[nH]c2c1
 : 2 | -0.2 | -0.1 | -1.8 | 0.5 | 9% | -4 | -5
#3 O=C(CN(C(=O)Cn1nnc(-c2ccccc2F)n1)c1cnc2ccccc2c1)NCC1CCCO1 (stereo not drawn)
 : 30 | -8.3 | 6.9 | 0.8 | 0.2 | 24% | 1 | -4
#4 Cc1c(Cl)cccc1NC(=S)NC1CCN(C(C)C)CC1
 : 24 | 2.4 | -4.6 | -3.8 | -0.3 | ? | -13 | -4
#5 CCOc1ccc(C(=O)Nc2cccc3ncccc23)cc1Br
 : 4 | -0.1 | 3.0 | 0.6 | 0.0 | -9% | 2 | 5
#6 COC(=O)c1ccc(N2C(=O)c3cc(N4CCOCC4)c([N+](=O)[O-])cc3C2=O)cc1
 : -22 | 2.0 | ? | 0.0 | -0.3 | · | -21 | ·
#7 COc1ccc(CCNC(=O)CCC(=O)n2ncc3ccc(Cl)cc32)cc1OC
 : -12 | 4.0 | 8.0 | -5.7 | -0.3 | · | -3 | -2
#8 CCn1nc(NC(=O)c2ccncc2)c2cc3ccccc3nc21
 : 4 | · | 3.0 | 0.5 | -1.3 | -10% | 3 | -7
#9 Cn1c(=O)oc2cc(S(=O)(=O)N3CCc4ccccc43)ccc21
 : -3 | 5.3 | -2.5 | -14 | 0.6 | 13% | -19 | -1
#10 COc1ccc(-c2cccc(NC(=O)c3ccc4c(c3)OCO4)c2)nn1
 : 0 | -0.8 | 0.2 | 1.4 | 0.6 | -13% | 51 | 0
#11 CC1CCN(CCOCCOc2ccccc2-c2ccccc2)CC1
 : -2 | · | ? | -1.7 | 0.5 | -6% | 11 | -5
#12 O=C(NCC1CCCO1)C1CCN(c2ccc(S(=O)(=O)N3CCCC3)cc2)CC1 (stereo not drawn)
 : 7 | 0.3 | -0.9 | · | · | 4% | 12 | ·
#13 O=C(N/N=C/c1cccc(C(F)(F)F)c1)c1ccc(O)cc1
 : -1 | 2.2 | 0.3 | 6.2 | 0.0 | 4% | -6 | -2
#14 CCOC(=O)C1(Cc2cccc(F)c2)CCN(C(=O)c2ccoc2C)CC1
 : 0 | 5.0 | 4.3 | -0.9 | -0.1 | · | 17 | -1
#15 COC(=O)c1nn(-c2ccccc2)c(Sc2ccccc2)c1/C=N/O
 : 3 | · | 1.8 | -8.4 | 0.5 | 29% | -5 | 2
#16 O=C(Cn1c(=O)cnc2ccccc21)NNC(=O)c1ccccc1Cl
 : · | 2.6 | · | 3.0 | 0.1 | -3% | · | -7
#17 CN(c1ccccc1)S(=O)(=O)c1cccc(NC(=O)CN2CCc3ccccc3C2)c1
 : 13 | 0.8 | -2.0 | 2.3 | 0.1 | 2% | 8 | 1
#18 Clc1nc2nc3n(c2nc1Cl)CCC3
 : -9 | -1.8 | -2.5 | 2.2 | 0.5 | · | 6 | 0
#19 O=C(O)c1ccc(-c2ccc(/C=N/Nc3ccc([N+](=O)[O-])cc3)o2)cc1
 : 4 | -4.6 | -95 | -1.2 | -3.7 | · | -13 | 1
#20 Cc1ccc(-c2nc3ccc(C(=O)O)cc3nc2-c2ccc(C)cc2)cc1
 : 14 | · | 0.5 | -1.0 | -0.1 | -14% | 48 | 8
#21 CCOC(=O)c1cnc2c(c(C)nn2C)c1Oc1ccccc1F
 : -3 | 3.8 | 6.6 | 4.9 | 0.8 | -10% | 17 | 1
#22 CC1(C)CC(=O)c2c(-c3cccs3)n[nH]c2C1
 : -1 | · | -3.7 | -4.8 | 0.2 | 0% | -10 | ·
#23 COc1cc(C2Nc3ccccc3C(=O)N2c2ccc3c(c2)OCCO3)ccc1OCC(C)C (stereo not drawn)
 : 13 | · | -2.9 | -1.6 | -3.8 | -1% | -4 | 12
#24 CCCN(CCC)CCCNC(=O)c1cn(C)c2ccc(S(=O)(=O)N(C)C3CCCCC3)cc2c1=O
 : 17 | 3.0 | -0.1 | 2.0 | 0.6 | · | -16 | -7
#25 CN(C)c1cccc(N=C2C=C(N3CCOCC3)CC(C)(C)C2)c1
 : 21 | · | ? | 1.1 | -0.2 | 8% | 14 | 0
#26 COc1ccc(O)c(C(=O)c2cnn(C(=O)c3ccc(C)cc3)c2)c1
 : · | -0.3 | · | 3.0 | 0.0 | -8% | · | 0
#27 CCN(CC)c1ccc(-c2nn3c(-c4cccnc4)nnc3s2)cc1
 : 0 | · | 11 | · | · | -58%&-2% | 1 | ·
#28 CCSc1nnc(NC(=O)C(C)C)s1
 : 0 | 4.3 | -1.5 | 2.9 | 0.0 | 3% | -1 | -7
#29 O=C1NC(c2cccc([N+](=O)[O-])c2)Oc2ccccc21 (stereo not drawn)
 : 7 | -0.7 | 22* | 4.0 | -0.5 | 11% | -2 | -3
#30 CCOC(=O)c1cc(C)[nH]c(=O)c1C#N
 : -16 | -10 | 7.7 | 1.5 | -0.1 | 5% | 15 | -2
#31 CCOC(=O)N1CCN(C(=O)C(NC(=O)c2ccco2)C(C)C)CC1 (stereo not drawn)
 : 2 | -1.3 | -0.7 | 2.6 | -0.3 | · | -1 | -6
#32 CCOc1ncccc1C(=O)OCC(=O)Nc1cc(S(=O)(=O)N(CC)CC)ccc1C
 : -4 | 1.8 | 2.9 | 4.3 | 1.1 | -4% | -3 | -5
#33 COc1cccc(-c2ccc3ncnc(NCc4cccnc4)c3c2)c1
 : · | 2.7 | · | -1.1 | -1.7 | · | · | -7
#34 COC(=O)c1ccccc1N1C(=O)[C@@H]2C(c3ccc(Br)cc3)=NO[C@@H]2C1=O
 : -9 | · | 3.6 | -3.4 | 1.6 | -18%&-43% | -6 | -7
#35 Cc1ccc(CNC(=O)CCSCc2cccc(F)c2)cc1
 : -22 | -2.8 | ? | -1.8 | 0.0 | 2% | -6 | -2
#36 Cc1ccc2oc(=O)n(CCOc3ccccc3C)c2c1
 : 4 | 0.9 | -1.5 | -4.3 | 0.2 | 4% | 8 | -6
#37 N#C/C(=C/c1ccc(Br)o1)C(N)=S
 : 4 | · | 6.1 | -0.1 | -0.6 | 3.9µM* | 0 | 4
#38 CNC(=O)CCN(Cc1ccco1)S(=O)(=O)c1ccc(OC)c(OC)c1
 : -10 | -2.7 | 1.1 | -1.4 | 1.0 | · | 8 | 4
#39 Cc1ccc(N2C(=O)CC(Sc3nc(C)cc(C)n3)C2=O)cc1 (stereo not drawn)
 : 10 | 0.9 | -0.4 | -4.8 | 0.8 | 0% | 8 | 3
#40 CCC(c1nnnn1Cc1ccc(F)cc1)N(CCCO)Cc1cc2cc3c(cc2[nH]c1=O)OCO3 (stereo not drawn)
 : 6 | · | -88 | 2.8 | 0.3 | 15% | 2 | -11
#41 Cc1nnc(SCc2cc(=O)[nH]c(N3CCN(Cc4ccccc4)CC3)n2)s1
 : 15 | · | 5.6 | 2.8 | 0.6 | 0% | 10 | 5
#42 COc1ccc(S(=O)(=O)Nc2ccc(N3CCOCC3)nc2)cc1
 : 4 | 2.0 | 2.4 | -6.8 | -0.2 | 9% | -5 | ·
#43 CCc1nnc(NC(=O)CSc2nnc(COc3ccc(C#N)cc3)n2-c2ccccc2)s1
 : 9 | · | -3.7 | -0.5 | 0.4 | ? | 14 | 1
#44 Cc1ccc(C)c(S(=O)(=O)N2CCN(C(=O)c3ccnn3C)CC2)c1
 : -8 | -0.3 | 2.0 | -20 | 0.4 | · | 3 | -2
#45 Cc1ccc(-c2csc(NC(=O)CCNC(=O)c3ccco3)n2)cc1
 : -7 | -1.1 | 1.6 | 4.7 | 0.6 | 10% | -5 | 27
#46 COc1ccc(-c2csc(NNC3=NCCCCC3)n2)cc1
 : 51 | 7.8 | -0.7 | -2.8 | 0.5 | 16% | -19 | -8
#47 c1ccc2c(c1)CCCN2Cc1nnnn1CC1CCCO1 (stereo not drawn)
 : -7 | · | 9.2 | 3.7 | 0.1 | 9% | -3 | 3
#48 CC(C)Oc1ccc(C2CC(=O)N(c3cccc(C(=O)O)c3)C2=O)cc1 (stereo not drawn)
 : -8 | · | 9.4 | 0.8 | 0.3 | 27% | -17 | 8
#49 Cc1cc(N/N=C/c2ccc(O)c(C)c2O)nc(-c2ccccc2O)n1
 : 59* | · | 1.5 | i | 0.4 | · | 16 | 16
#50 O=[N+]([O-])c1ccc(-c2ccc(/C=N/Nc3nc(N4CCCC4)nc(N4CCCC4)n3)o2)cc1
 : 42 | -1.1 | -8.3 | 6.1 | 0.0 | -1% | 7 | 5
#51 CCCc1cc(C(=O)OCC(=O)N2CCN(c3ccc(OC)cc3)CC2)sc1C
 : · | 7.4 | · | -2.3 | 0.3 | -6% | · | -2
#52 Cc1ccc(C(c2nnnn2C2CCCC2)N2CCN3CCCC3C2)cc1 (stereo not drawn)
 : -2 | · | 0.2 | 9.3 | 0.7 | -3% | -14 | -3
#53 COc1ccc(Cl)cc1Nc1nc(-c2sc(NC(=O)C(C)(C)C)nc2C)cs1
 : 14 | 8.8 | -1.5 | -7.4 | 1.1 | 5% | 1 | 9
#54 CCN(CC)S(=O)(=O)c1cccc(C(=O)N/N=C(\C)c2cccs2)c1
 : · | 5.4 | · | 0.2 | -1.0 | 4% | -1 | -22
#55 CCn1ccnc1CN(C)Cc1nc(Cc2cccc(C(F)(F)F)c2)no1
 : 12 | 2.4 | -8.4 | -6.0 | 0.1 | ? | -22 | 5
#56 CCCOc1ccc(C(=O)CCNC(Cc2c[nH]c3ccccc23)C(=O)O)cc1 (stereo not drawn)
 : -4 | · | 6.3 | 2.3 | 0.1 | -5% | -9 | -17
#57 CN(C)c1ccc(NC(=O)CC2NCCNC2=O)cc1 (stereo not drawn)
 : -20 | · | 0.0 | 9.9 | 0.5 | -4% | -7 | -1

A portion of the results above:
Values run as follows: T cruzi inh | MLL AF4-AF9 inh | RanGTP-Imp inh | LANA-H2A inh | Bfl-1 A1 inh | Vif TR-FRET | Calb FLC | Beta apoptosis
#31 CCOC(=O)N1CCN(C(=O)C(NC(=O)c2ccco2)C(C)C)CC1 (stereo not drawn)
 : 2 | -1.3 | -0.7 | 2.6 | -0.3 | · | -1 | -6
#32 CCOc1ncccc1C(=O)OCC(=O)Nc1cc(S(=O)(=O)N(CC)CC)ccc1C
 : -4 | 1.8 | 2.9 | 4.3 | 1.1 | -4% | -3 | -5
#33 COc1cccc(-c2ccc3ncnc(NCc4cccnc4)c3c2)c1
 : · | 2.7 | · | -1.1 | -1.7 | · | · | -7
#34 COC(=O)c1ccccc1N1C(=O)[C@@H]2C(c3ccc(Br)cc3)=NO[C@@H]2C1=O
 : -9 | · | 3.6 | -3.4 | 1.6 | -18%&-43% | -6 | -7
